HSD17B inhib = qHTS Assay for Inhibitors of HSD17B4, hydroxysteroid (17-beta) dehydrogenase 4. 3-hydroxyacyl-CoA dehydrogenase type-2 (Homo sapiens), Q99714. recombinant HSD17B10, NADH fluorescence kinetic; many of its hits are not listed in these tables. Potency, µM (highest dose often 57.1 µM), without a hit: top-dose activity change, negative = inhibition, most hits filed as inhibitors. 7.6% of 75,000 active. AID 893, 2007; active = well fitted inhibition curve with a large enough effect; inconclusive = small, poorly fitted or top-dose-only effect; inactive = no such curve, though single readings can be large or run the other way;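 also: the protocol describes HADH2 (HSD17B10) and not the HSD17B4 of the title; nearly all actives have a fitted effect of over 70% in size; most hits overshoot -100% by far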
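Activity followed as NADH fluorescence increase (ex 360, em 450 nm) every 30 seconds for 4 min, using final 90 uM beta-hydroxybutyryl CoA and 1 mM NAD+. Recombinant His-tagged enzyme, 20 nM, pH 9.0 Tris buffer, 15 min compound preincubation.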
The depositor's hits bear a star; ? = inconclusive; [ ] = dose if it differs, or a comment. % is scaled to controls: 0 for no effect and ±100 for the full control effect; potency is read from the fitted curve at half-maximal effect. Some of the compounds tested (hit frequency here may not be typical).

Molecule,HSD17B inhib
O=c1cc(-c2ccc(O)cc2)oc2c([C@H]3O[C@@H](CO)[C@@H](O)[C@@H](O)[C@@H]3O)c(O)cc(O)c12,-6.8%[25.6 µM]
CC1CC(C)CN(Cc2nc3c(c(=O)n(C)c(=O)n3C)n2CCN2CCOCC2)C1 (stereo not drawn),7.8%
O=C(c1ccc([N+](=O)[O-])cc1)[C@@H](Br)[C@@H](Br)c1ccnc2ccccc12,-22.8%[11.4 µM]
Cc1cc(C)c2c(c1)c(C)cc1nnc(SCC(=O)NCc3ccco3)n12,?
CCOC(=O)CNC(=O)CSc1nnc(-c2ccco2)n1Cc1ccco1,4.3%
CCCCSC1=C(C#N)C(c2ccccc2C)C(C(=O)OCC)C(=O)N1 (stereo not drawn),-5.8%
COc1ccc(-c2noc(CSc3ccccc3)n2)cc1OC,-5.8%
CCC(C)NCC(=O)Nc1ccc(-c2nc3cc(NC(=O)CNC(C)CC)ccc3o2)cc1 (stereo not drawn),12.6µM*
COCCCN1C(=O)C(=O)/C(=C(/O)c2ccc(OC)cc2C)C1c1cccnc1 (stereo not drawn),-10.0%
Cc1oc(/N=C/c2ccc(Cl)cc2)c(C#N)c1C,11.0%
CN(CC(=O)NCCN1CCCCCC1)S(=O)(=O)c1cccc2nsnc12,3.7%
COc1cccc(C(=O)Nc2ccc3nc(N4CCOCC4)cc(C)c3c2)c1,-23.9%
N[C@@H](Cc1cccc([N+](=O)[O-])c1)C(=O)O,-3.1%[11.4 µM]
Cc1cc(Br)ccc1SCC(=O)OCC(=O)N1CCN(C(=O)c2ccco2)CC1,-17.6%
COc1cccc(NC(=O)CN2CCN(c3ccccc3F)CC2)c1,1.6%
O=C(CSc1nnnn1C1CCCC1)Nc1ccc2c(c1)OCO2,14.0%
CS(=O)(=O)N1CCc2cc(S(=O)(=O)Nc3ccc4oc5c(c4c3)CCCC5)ccc21,-4.0%
CC(=O)C1=C(C)NC(SCC(N)=O)=C(C#N)C1c1cccnc1 (stereo not drawn),-12.8%
COc1ccc(CC(=O)Nc2c3c(nn2-c2ccccc2C)CS(=O)C3)cc1 (stereo not drawn),13.6%
CCCC(C)NS(=O)(=O)c1ccccc1 (stereo not drawn),5.5%

Next section, overlapping the part above by 3 compounds.
Molecule,HSD17B inhib
CC(=O)C1=C(C)NC(SCC(N)=O)=C(C#N)C1c1cccnc1 (stereo not drawn),-12.8%
COc1ccc(CC(=O)Nc2c3c(nn2-c2ccccc2C)CS(=O)C3)cc1 (stereo not drawn),13.6%
CCCC(C)NS(=O)(=O)c1ccccc1 (stereo not drawn),5.5%
CCOC(=O)c1oc2nc3c(cc2c1N)COC(C)(C)C3,31.6µM*
CC(NC(=O)CSc1nc2ccccc2c(=O)[nH]1)c1ccccc1 (stereo not drawn),-4.7%
COC(=O)c1cc(NC2c3ccccc3C(=O)N2CCN2CCOCC2)cc(C(=O)OC)c1 (stereo not drawn),-3.1%
COc1cc(OC)cc(-n2nnnc2SCC(=O)N2CCCC2)c1,-2.7%
Cc1cccc(N2CCN(C(=O)c3cn(C)c(=O)c4c3c3ccccc3n4C)CC2)c1C,?
COCc1[nH]nc2c1C1(CCC3(CC1)OCCO3)C(C#N)=C(N)O2,9.5%
Cc1c(N=CN2CCOCC2)c(=O)n(C)c(=O)n1C,1.2%
CCOC(=O)c1c(N)sc(C(=O)N2CCCC(C(N)=O)C2)c1C (stereo not drawn),9.6%
CCn1c(SCC(=O)O)nnc1-c1cc2c(C)nn(-c3ccccc3)c2s1,?
O=C(Nc1ccc(F)cc1)NC1(C(=O)NCc2ccco2)CCCCC1,3.7%
Cc1nn(Cc2ccccc2Cl)c2sc(C(=O)NCCCn3ccnc3)cc12,-1.0%
CCOC(=O)CC(=O)Nc1cc(Cl)ccc1O,-16.2%
CCN(CC)CCNC(=O)c1c(O)c2c([nH]c1=O)CCCC2,4.2%
N#CC1=C(N)Oc2n[nH]c(-c3ccc(F)cc3)c2C1c1cccnc1 (stereo not drawn),-8.8%
CCC1(C(=O)OC)NC(c2ccco2)C2C(=O)N(c3ccc(C)cc3)C(=O)C21 (stereo not drawn),7.4%
CN(C)S(=O)(=O)N1CCC(C(=O)O)(c2ccccc2)CC1,2.8%
CCCCC1CCC(c2nc(-c3ccccn3)no2)CC1 (stereo not drawn),-15.9%
O=C(NCCCN1CCN(C2CCCCC2)CC1)Nc1ccccc1C(F)(F)F,13.0%
O=S(=O)(c1cccc(-c2nnc(SCc3ccc(Cl)cc3)o2)c1)N1CCCCC1,1.5%
CCS(=O)(=O)N1CCN(C(=O)c2cccs2)CC1,-2.2%

Later entries.
Molecule,HSD17B inhib
COc1ccc2nc(NC(=O)C(NS(=O)(=O)c3cccs3)C(C)C)sc2c1 (stereo not drawn),-18.7%
CSc1nnc(-c2cc3ccccc3cc2O)n1C,25.1µM*
Nn1c(CSc2nc3ccccc3o2)nnc1CSc1nc2ccccc2o1,5.6%
CC(=O)OCC(=O)[C@@]12OC3(CCCC3)OC1CC1C3CCC4=CC(=O)C=C[C@@]4(C)[C@]3(F)C(O)C[C@]12C (stereo partly drawn),-0.4%
Cc1cc(C)n(C(=O)Cc2cn3ccsc3n2)n1,-4.5%
CCOC(=O)CSC1=C(C#N)C(c2ccc(F)cc2)C(C(C)=O)=C(C)N1 (stereo not drawn),5.3%
COc1cc(C(=O)NCCC(=O)NCCN2CCCCCC2)cc(OC)c1OC,4.5%
COc1ccc(C(C(O)C(=O)c2c[nH]c3ccccc23)N2CCN(c3ccc(OC)cc3)CC2)cc1 (stereo not drawn),7.8%
COc1ccc(S(=O)(=O)N2CCN(C(=O)c3cccs3)CC2)cc1,6.9%
NC1=NC2(CCCCC2)n2c(nc3ccccc32)N1,-9.1%
Cc1ccc(-c2nc(=S)c3c(n2Cc2ccco2)CCCC3)cc1,-4.7%
CCC[C@@H]1C[C@@]1(CCC)C(NC(=O)c1ccco1)c1ccc(Cl)cc1 (stereo partly drawn),-7.0%
C=CCSC1=N/C(=C\c2ccsc2)C(=O)S1,-1.0%
COCCn1c(=O)[nH]c2cc(C(=O)NC3CCCCCC3)ccc2c1=O,25.1µM*
COc1ccc(-n2c(=O)c(-c3cc(F)cc(F)c3)nc3cncnc32)cc1,12.2%
Cc1cccc(N2CCN(C(=O)CCCOc3ccccc3)CC2)c1C,-3.9%
CC(=O)c1cc(C)ccc1OC(=O)c1ccco1,16.8%
CC(Sc1nnnn1-c1ccccc1)C(=O)Nc1ccc(Cl)cn1 (stereo not drawn),-13.5%
COc1cc(C(=O)N2CCC(NC(=O)C(Cc3ccccc3C)NC(C)=O)CC2)cc(OC)c1OC (stereo not drawn),8.6%
COc1ccc(CNC(=O)CSc2nnc(C)s2)cc1,11.4%

The listing continues.
Molecule,HSD17B inhib
CCOC(=O)CNC(=O)CSc1nc2cccnc2n1C1CCCCC1,-7.3%
NC(=O)Cn1cnc(-c2ccccc2)c1,7.2%
Clc1ccc(Cn2ncc3c(N4CCOCC4)ncnc32)cc1,-1.6%
CCN(CC)S(=O)(=O)c1ccc(C(=O)NCc2n[nH]c(=S)n2-c2ccccc2OC)cc1,-3.6%
Fc1ccccc1CSc1nc2ncccc2[nH]1,-12.1%
COc1ccc(C)cc1-n1nnnc1SC/C(O)=C(\C#N)c1nc2ccccc2[nH]1,-29.7%
C/C(=C\C(=O)Nc1cc(C)on1)c1ccccc1,-4.5%
CCOC(=O)N1CCN(C(=O)c2ccccc2CCc2ccccc2)CC1,0.5%
Cc1cccc2cc(CN(Cc3ccc(F)cc3)C(=O)N(C)C)c3nnnn3c12,-12.2%
COc1ccc(OC)c(CN2CCN(c3ccccc3OC)CC2)c1,3.9%
CCc1ccccc1NC(=O)CN(c1cccc(OC)c1)S(C)(=O)=O,-1.5%
COc1ccc(C2C(C(=O)Nc3ccccc3OC)=C(C)Nc3ncnn32)cc1 (stereo not drawn),3.6%
O=c1[nH]n(-c2ccccc2)c(=O)c2ccccc12,-4.6%
CC(=O)Oc1ccc2c(C)c(CC(C)O)c(=O)oc2c1 (stereo not drawn),2µM*
O=C(CN1C(=O)C2CC=CCC2C1=O)Nc1ccc(S(=O)(=O)NC2=NCCCCC2)cc1 (stereo not drawn),-2.3%
Cc1cccc(NC(=O)CSCc2c(C)noc2C)c1C,-5.5%
O=C(Nc1ccc(F)cc1)N(Cc1ccco1)Cc1cc2cc3c(cc2[nH]c1=O)OCO3,31.6µM*
CN(c1ccc(C(=O)O)cc1)S(=O)(=O)c1ccccc1,9.9%
CCOC(=O)C1CCN(S(=O)(=O)c2cccc(-c3cn4ccccc4n3)c2)CC1,25.1µM*
CCCCCCCC#Cc1ccccc1C(NC(=O)OC)C(C(=O)OC)C(=O)OC (stereo not drawn),-0.4%[11.4 µM]

More entries:
Molecule,HSD17B inhib
C=CCNC(=O)C12CC3CC(C1)CC(C(=O)NCC=C)(C3)C2,1.6%
CCc1ccc(C2CC(c3cccc(OC)c3)n3nc(N)nc3N2)cc1 (stereo not drawn),-2.6%
O=C(O)c1ccc2c(c1)C(=O)N(C(Cc1ccccc1)C(=O)O)C2=O (stereo not drawn),4.4%
Cn1cc(C(=O)c2ccccc2)cc1-c1nc2ccccc2n1C,-27.0%
N#CCCN(CCC#N)c1nncs1,-5.1%
COc1ccc(NC(=O)CN2C(=O)C(C)Oc3ccccc32)cc1 (stereo not drawn),-4.6%
COc1ccc(NC(=O)CSc2nnc(-c3ccccc3)n2Cc2ccco2)c(OC)c1,-0.3%
COC(=O)c1ccc(COC(=O)c2ccc(N(C)C)cc2)cc1,?
Cc1noc(C)c1S(=O)(=O)N1CCC(C(=O)N2CCN(C3CCCC3)CC2)CC1,4.9%
COc1ccc(N(CC(=O)N2CCC(C)CC2)S(=O)(=O)c2c(C)nn(C)c2C)cc1,9.8%
O=C(Nc1ccc(S(=O)(=O)N2CCCC2)cc1Cl)C1=COCCO1,3.7%
Cc1cccc(C)c1OCc1nnc(SCC(=O)Nc2nccs2)n1-c1ccccc1,3.5%
CC(=O)N1CCN(C(C)=O)C1c1ccccc1,-0.5%
O=C(NCC1CCCO1)C1CCCN(Cc2cnn(-c3ccccc3)c2-n2cccc2)C1 (stereo not drawn),1.8%
CNC(=O)CSc1nc2c(c(=O)n(C)c(=O)n2C)n1Cc1ccc(C)cc1,5.8%
O=C(NCc1ccco1)C1CCN(C(=O)c2cc3sccc3n2Cc2ccc(Cl)cc2)CC1,-15.8%
CCOC(=O)Cc1nnc(NC(=O)c2cccc(OCC)c2)s1,-5.6%
Cc1csc(NC(=O)CSc2nnc3ncccn23)n1,3.3%
COc1ccc2[nH]cc(CCNc3ncncc3-c3cccnc3)c2c1,-14.4%
Cc1onc(-c2ccccc2)c1C(=O)Nc1nc2c(s1)CCCC2,-1.9%

More records follow.
Molecule,HSD17B inhib
CCCc1ccc(-c2ccc(C(=O)O)cc2)nc1,-3.1%
COc1ccc(-n2c(SCC(=O)c3c(N)n(C)c(=O)n(C)c3=O)nc3ccccc32)cc1,-1.9%
O=C1CN(CC(=O)N2CCOCC2)c2ccccc2O1,-23.7%
Cn1c(C(=O)NCC2CCCO2)cc2oc3ccccc3c21 (stereo not drawn),-6.1%
O=C(CSc1nc2ccccc2o1)N1CCN(C(=O)c2ccco2)CC1,11.7%
CCOC(=O)c1cnn(-c2cc(C)c3cc(C)cc(C)c3n2)c1N,6.9%
O=C(Nc1ccc(-c2nnc(-c3ccccc3)o2)cc1)C(F)(F)F,?
CC(=O)N1CCN(c2ccc(Oc3nnnn3-c3ccccc3)cc2)CC1,0.8%
CCC(=O)Nc1ccc2c(c1)ncn2-c1ccccc1OC,6.0%
Cc1ccc(N)cc1O,-5.7%
Clc1ccc(C2[C@H]3CN(Cc4ccc(-c5ccccc5)cc4)[C@H](c4ccccc4)C34CC2(c2cccnc2)C4)cn1 (stereo partly drawn),-2.6%
C=C(C)C(N)=O,-1.1%
Cc1ccccc1CS(=O)(=O)c1nnc([C@H](CC(C)C)NC(=O)OC(C)(C)C)o1,7.8%
O=C(c1cccc(C(=O)N2CCN(c3ccccc3F)CC2)n1)N1CCN(c2ccccc2F)CC1,4.8%
COc1ccccc1N(C(=O)c1ccco1)C(C(=O)NC1CCCC1)c1cccnc1 (stereo not drawn),5.5%
CCOC(=O)N1CCN(CC(=O)Nc2ccc(C)cc2)CC1,12.9%
CCCCn1c(=O)c2c(c3ccccc31)OCC(=O)N2,-0.1%
Cc1cc(C)c2c(n1)sc1c(N3CCOCC3)ncnc12,9.7%
COc1cc(OC)c2c(=O)c(-c3ccccc3)coc2c1,25.1µM*
CC(C)(C)NC(=O)COc1ccc(CNn2nnnc2N)cc1,9.4%
CC(C(=O)Nc1nccs1)N1C(=O)C2CC=CCC2C1=O (stereo not drawn),12.3%
CSc1nc2c(c(=O)n1C)SC(C)C2 (stereo not drawn),-8.3%
CCC(=O)c1ccccc1OCCN1C(=O)NC(C)(C)C1=O,0.8%

Two entries picked at random from the list so far, as already listed:
Molecule,HSD17B inhib
Cc1cc(C)c2c(n1)sc1c(N3CCOCC3)ncnc12,9.7%
O=C(Nc1ccc(-c2nnc(-c3ccccc3)o2)cc1)C(F)(F)F,?

Source: PubChem (National Center for Advancing Translational Sciences (NCATS))
